Assay outcomes (PubChem)
TRPV1 PAM: potentiators of human vanilloid receptor 1 (TRPV1); Q8NER1; TRPV1-expressing cells, Fluo-8 calcium influx, capsaicin EC20 potentiation; host cell line not named in the record; control for the full effect not named in the record; potentiation, % at 8.33 µM; 0.02% of 320,000 active; active means potentiation above 80%; inconclusive means 30% to 80%; inactive means below 30%; further: 0% is about no effect
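Fluo-8 calcium influx in TRPV1-expressing cells, kinetic read (ex 480/em 520 nm). Compound added and read 3 min for agonist activity, followed by capsaicin at EC20 final and 2 min further read for enhancement.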
TRPML1 ag: human mucolipin-1 channel agonism | Q9GZU1 | AID 624414 | 0.12% of 410,000 active | TRPML1-expressing cells, Ca2+ dye fluorescence, FDSS; host cell line not named in the record; reference of the full effect not given here | activation, % (no concentration beside the values); in the data active = activation above about 50%; inconclusive = about 30% to 50%; inactive = below about 30%; further: 0% is about no effect; the text of the record puts the active cut at 80%
Target sequence (Q9GZU1 whole entry, looked up): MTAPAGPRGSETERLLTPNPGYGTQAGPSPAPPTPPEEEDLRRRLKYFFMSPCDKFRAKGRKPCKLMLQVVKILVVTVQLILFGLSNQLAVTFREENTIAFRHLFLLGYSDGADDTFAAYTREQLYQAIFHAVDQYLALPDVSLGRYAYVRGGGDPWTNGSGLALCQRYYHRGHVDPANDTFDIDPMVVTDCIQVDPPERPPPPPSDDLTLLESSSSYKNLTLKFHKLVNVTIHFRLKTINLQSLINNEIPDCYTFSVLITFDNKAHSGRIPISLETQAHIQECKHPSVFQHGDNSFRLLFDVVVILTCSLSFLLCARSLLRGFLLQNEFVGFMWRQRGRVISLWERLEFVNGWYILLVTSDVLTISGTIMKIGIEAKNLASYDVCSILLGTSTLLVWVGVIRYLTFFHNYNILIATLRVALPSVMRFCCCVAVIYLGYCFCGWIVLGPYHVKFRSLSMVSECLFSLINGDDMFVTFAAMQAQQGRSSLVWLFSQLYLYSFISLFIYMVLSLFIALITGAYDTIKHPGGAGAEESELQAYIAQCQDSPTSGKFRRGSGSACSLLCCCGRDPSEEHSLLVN
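In this qHTS format, compounds were pin-transferred onto Ca8-dye-loaded TRPML1-DL cells induced with Tet overnight, and intracellular Ca2+ fluorescence was recorded kinetically for 110 s after a 10 s baseline. A subsequent 4uM final 54-4 (EC80) addition followed by a second 110 s read served as the antagonist phase.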
Menin MLL FP FL: displaces fluorescein MLL peptide from human menin; Fluorescence polarization, fluorescein-MLL peptide displacement from menin; FP activity change, % at 61.4 µM; 290,000 tested, under 10 active; inconclusive = falling polarisation curve, or a change in total fluorescence; inactive = total fluorescence flat and polarisation flat or rising; no compound was filed as active; the % refers to the polarisation; negative = inhibition;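 further: % of control where 0% means no effect; inhibitors lower the polarisation; unlabelled MLL peptide was the positive control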
PINK1 expr mod: PINK1 expression modulation. AID 624263. PINK1 immunofluorescence, high-content cytometry, 24 h. Potency, µM (top dose mostly 76.6 µM), for the others: top-dose activation (PINK1 increase), usual class: activators. 0.2% of 410,000 active; active = well fitted activation curve with a large enough effect; inconclusive = small, poorly fitted or top-dose-only effect; inactive = flat fitted curve, though single readings scatter; cell line not stated here;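 further: potency means the concentration at half of the fitted maximal effect; % of control where 0% means no effect; nearly all actives have a fitted effect of over 65% in size; a mitochondrial uncoupler was the plate control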
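Decision-based qHTS: stable cells, 24 h exposure to five compound concentrations, CCCP as control. Fixed cells stained for PINK1 plus nuclear, mitochondrial and cell markers, cytometer read.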
Sfp PPTase inh: Sfp phosphopantetheinyl transferase inhibition | AID 1490 | Potency, µM, inactives show max response, negative = inhibition, hits mostly inhibitors | Biochemical Sfp PPTase activity, qHTS | 3.5% of 310,000 active | Q9F4F7; active means well fitted inhibition curve with a large enough effect; inconclusive means small, poorly fitted or top-dose-only effect, or another doubt; inactive means no such curve, though single readings can be large or run the other way;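 further: the enzyme is Sfp with the accession as filed and its product quenches rhodamine fluorescence; potency means the concentration at half of the fitted maximal effect; 0% = enzyme reaction without inhibitor and -100% = no enzyme wells; top concentration of the series not given in the record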
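Compounds were incubated with enzyme (final 15 nM) for 15 min at room temperature before substrate addition started the reaction. Fluorescence at 525 nm excitation, 598 nm emission was recorded immediately and after 30 minutes.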
ClpP mod: qHTS Assay for Activators of ClpP; ATP-dependent Clp protease proteolytic subunit (Bacillus subtilis (strain 168)), P80244; purified B. subtilis ClpP, FRET peptide cleavage, 20 min; Potency, µM (titrated, usually from 57.5 µM), without a hit: top-dose activity change, negative = active; 1.9% of 340,000 active; active = well fitted falling curve with a large enough effect; inconclusive = small, poorly fitted or top-dose-only effect; inactive = no such curve, though single readings can be large or run the other way; further: potency means the concentration at half of the fitted maximal effect; the source files actives as falling curves though it sought activators and does not explain the sign; nearly all actives have a fitted effect of over 65% in size; many hits overshoot -100%
Target sequence (P80244 whole entry, looked up): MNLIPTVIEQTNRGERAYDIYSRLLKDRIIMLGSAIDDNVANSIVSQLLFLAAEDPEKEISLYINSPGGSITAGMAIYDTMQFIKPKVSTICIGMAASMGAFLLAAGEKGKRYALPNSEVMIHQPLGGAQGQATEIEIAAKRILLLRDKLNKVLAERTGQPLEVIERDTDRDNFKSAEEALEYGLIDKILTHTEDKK
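FRET quenching reversal measured ClpP activation: 10 microg/mL B. subtilis ClpP at pH 8 with the FRET-FV decapeptide, read at 430 nm after 320 nm excitation. The 20-min minus 0-min signal was scaled between DMSO/no-enzyme wells and ADEP (5.8 microM final).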
TRPML1 blocker: inhibitors of human TRPML1 channel; activity change, negative = inhibition, % (concentration not given with the values); TRPML1-inducible cells, Ca2+ dye fluorescence, FDSS; stronger effect = lower value; inhibition of EC80 agonist-evoked calcium signal; 0.02% of 390,000 active; Q9GZU1; in the data active means activity change below about -50%; inconclusive means about -30% to -50%; inactive means above about -30%;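 further: stimulus is agonist 54-4 at its EC80 concentration; on the % scale 0 is the no-effect control and ±100 the full control effect; compound concentration not given in the record; the text of the record puts the active cut at -80%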
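TRPML1-DL cells, Tet-induced overnight (~16 h, 37 °C) at 1,500 cells/well, were loaded with Ca8 no-wash dye plus quencher for 45-90 min at room temperature. Compounds were pinned during FDSS kinetic reading; agonist 54-4 at EC80 (4 uM final) then added.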
An asterisk follows results filed as active; i = inactive; ? = inconclusive; . = no result given; [ ] = another dose, or the depositor's remark.

The opening eleven records (preview)
No.	SMILES	TRPV1 PAM	TRPML1 ag	Menin MLL FP FL	PINK1 expr mod
1	COc1ccc(C2=NN(C(N)=S)C(c3ccco3)C2)cc1 (centres undefined)	4	3.6	11	0.3%
2	C/C(=N\Nc1ccc2nncn2n1)c1ccccn1	-3	0.2	2.5	-0.4%
3	COCCCNC(=O)c1cn(C)c(=O)c2cc(OC)c(OC)cc12	-16	-0.1	1.5	2.2%
4	O=C(CSc1nnc(Cn2nnc3ccccc32)o1)Nc1ccc(Cl)cc1	-6	1.5	1.9	-0.8%
5	S=C(NCCCc1cnc[nH]1)NCCCN(Cc1ccc(Cl)cc1)c1ncc(Br)cn1	.	1.3	.	-0.8%
6	Cc1onc(-c2ccccc2)c1C(=O)OCC(=O)NCc1ccc(F)cc1	-9	-0.4	-1.5	0.7%
7	O=S(=O)(Nc1ccccn1)c1ccc(C2CCCCC2)cc1	-5	1.2	6.4	.
8	CCOc1ccc(-c2nc(CSCC(=O)NCc3ccc(Cl)cc3)c(C)o2)cc1	.	2.6	.	3.5%
9	CCCn1cc2c(c1-c1cccc(C)c1)c(=O)n(C)c(=O)n2C	-17	0.2	-1.3	-0.7%
10	CC(C)Oc1ccc(C(=O)Nc2nc3c(s2)CC(C(C)(C)C)CC3)cc1 (centres undefined)	.	14	.	1.3%
11	Cc1ccc(OCC(=O)Nc2ccc(F)cc2)c([N+](=O)[O-])n1	3	-0.7	2.2	1.8%

No.	Sfp PPTase inh	ClpP mod	TRPML1 blocker
1	11µM*	-5.4%	-7
2	4%	-0.4%	14
3	11%	?	-6
4	22%	-0.7%	-10
5	.	-12%	.
6	18%	.	-2
7	25%	-10%	10
8	.	-19%	2
9	-7%	14µM*	28
10	.	?	12
11	5%	.	47

Main list (from the top)
No.	SMILES	TRPV1 PAM	TRPML1 ag	Menin MLL FP FL	PINK1 expr mod
1	COc1ccc(C2=NN(C(N)=S)C(c3ccco3)C2)cc1 (centres undefined)	4	3.6	11	0.3%
2	C/C(=N\Nc1ccc2nncn2n1)c1ccccn1	-3	0.2	2.5	-0.4%
3	COCCCNC(=O)c1cn(C)c(=O)c2cc(OC)c(OC)cc12	-16	-0.1	1.5	2.2%
4	O=C(CSc1nnc(Cn2nnc3ccccc32)o1)Nc1ccc(Cl)cc1	-6	1.5	1.9	-0.8%
5	S=C(NCCCc1cnc[nH]1)NCCCN(Cc1ccc(Cl)cc1)c1ncc(Br)cn1	.	1.3	.	-0.8%
6	Cc1onc(-c2ccccc2)c1C(=O)OCC(=O)NCc1ccc(F)cc1	-9	-0.4	-1.5	0.7%
7	O=S(=O)(Nc1ccccn1)c1ccc(C2CCCCC2)cc1	-5	1.2	6.4	.
8	CCOc1ccc(-c2nc(CSCC(=O)NCc3ccc(Cl)cc3)c(C)o2)cc1	.	2.6	.	3.5%
9	CCCn1cc2c(c1-c1cccc(C)c1)c(=O)n(C)c(=O)n2C	-17	0.2	-1.3	-0.7%
10	CC(C)Oc1ccc(C(=O)Nc2nc3c(s2)CC(C(C)(C)C)CC3)cc1 (centres undefined)	.	14	.	1.3%
11	Cc1ccc(OCC(=O)Nc2ccc(F)cc2)c([N+](=O)[O-])n1	3	-0.7	2.2	1.8%
12	CN(c1ccccc1C(=O)Nc1ccc2c(c1)OCCO2)S(C)(=O)=O	-1	-1.3	1.6	0.1%

No.	Sfp PPTase inh	ClpP mod	TRPML1 blocker
1	11µM*	-5.4%	-7
2	4%	-0.4%	14
3	11%	?	-6
4	22%	-0.7%	-10
5	.	-12%	.
6	18%	.	-2
7	25%	-10%	10
8	.	-19%	2
9	-7%	14µM*	28
10	.	?	12
11	5%	.	47
12	11%	-2.0%	3

New compounds follow
No.	SMILES	TRPV1 PAM	TRPML1 ag	Menin MLL FP FL	PINK1 expr mod
13	Cn1c(=O)c2nc3ccc(NC(=O)C(F)(F)F)cc3nc2n(C)c1=O	.	12	.	1.3%
14	CC1(C)SC(=S)N(c2ccccc2)C1/[N+]([O-])=C/c1cccc([N+](=O)[O-])c1 (centres undefined)	-13	0.7	0.0	0.6%
15	CCOC(=O)C1=C(C)NC(=S)N(C(C)=O)C1c1ccccc1 (centres undefined)	-2	-0.5	-1.1	-2.1%[38.3 µM]
16	CCCCn1c(N)c(Sc2ccc(Cl)cc2)c(=O)[nH]c1=O	-4	2.4	1.3	1.6%[38.3 µM]
17	CC(C)C1Cc2c(sc3[nH]c(=S)n(Cc4ccccc4)c(=O)c23)CO1 (centres undefined)	16	-1.0	0.0	-2.4%
18	C=CCNC(=O)CSc1nc2sc3c(c2c(=O)n1CCC)CCC3	-18	0.6	1.5	2.1%
19	O=C1C2=C(C(=O)c3ccccc31)C1O[C@](c3ccsc3)(Cc3c1ccc1ccccc31)O2	i	.	7.6[11.7 µM]	.
20	O=C(Nc1nc2ccccc2s1)C1CC(=O)N(c2ccc(F)cc2)C1 (centres undefined)	3	2.5	6.7	-0.6%
21	O=C(NC1C2CC3CC(C2)CC1C3)c1ccc2c(c1)OCO2 (centres undefined)	-10	-1.5	0.3	-0.6%
22	O=C(CSc1nnc(-c2ccccn2)n1Cc1ccco1)c1ccc(Cl)cc1	-2	-0.3	-0.1	-2.7%
23	O=C(COc1ccc(Cl)cc1Cl)N1CCN(C(=O)c2ccco2)CC1	2	-0.2	-7.1	0.9%
24	C=CCSc1nc2[nH]ncc2c(=O)[nH]1	-5	2.3	2.3	-0.5%

No.	Sfp PPTase inh	ClpP mod	TRPML1 blocker
13	.	?	1
14	1%	.	-8
15	1%	1.3%	-8
16	9%	-0.6%	-10
17	24%	6.4%	6
18	20%	.	28
19	-22%	.	.
20	5%	-0.7%	10
21	5%	20µM*	-6
22	-26%	0.8%	6
23	19%	.	18
24	21%	0.6%	-1

Later entries:
No.	SMILES	TRPV1 PAM	TRPML1 ag	Menin MLL FP FL	PINK1 expr mod
25	N#Cc1c(-c2ccccc2)c(-c2ccccc2)nn(CC(=O)NNC(=O)Nc2ccc(Cl)c(Cl)c2)c1=O	-3	-0.4	4.3	-2.1%
26	CCOC(=O)c1ccc(NC(=O)CSCc2ccco2)cc1	-22	-0.3	10	0.9%[38.3 µM]
27	O=C(NCc1cn(-c2ccccc2)nc1-c1ccccc1)c1cc([N+](=O)[O-])cc([N+](=O)[O-])c1	-6	0.6	-2.8	-2.9%
28	O=C(O)CCC(=O)N1CCN(c2ccc(C(=O)c3ccc(F)cc3)cc2)CC1	3	-0.4	-0.9	-2.1%
29	CCCCCOc1ccccc1CN1C(=O)C(=O)c2cc(C)ccc21	.	1.8	.	1.4%
30	COc1ccccc1CNc1ncnc2ccc(-c3ccc4c(c3)OCO4)cc12	.	.	-0.1	0.7%
31	Cc1nnc(Nc2ccc(C(=O)O)cc2)[nH]c1=O	-2	-0.3	3.3	1.1%

No.	Sfp PPTase inh	ClpP mod	TRPML1 blocker
25	17%	1.3%	2
26	-38%	0.7%	-12
27	12%	-3.9%	-23
28	3%	-1.2%	9
29	.	-1.0%	36
30	-6%	.	.
31	9%	.	6

3 compounds out of the list, ordered by molar mass, low to high.
No.	SMILES	TRPV1 PAM	TRPML1 ag	Menin MLL FP FL	PINK1 expr mod
29	CCCCCOc1ccccc1CN1C(=O)C(=O)c2cc(C)ccc21	.	1.8	.	1.4%
30	COc1ccccc1CNc1ncnc2ccc(-c3ccc4c(c3)OCO4)cc12	.	.	-0.1	0.7%
25	N#Cc1c(-c2ccccc2)c(-c2ccccc2)nn(CC(=O)NNC(=O)Nc2ccc(Cl)c(Cl)c2)c1=O	-3	-0.4	4.3	-2.1%

No.	Sfp PPTase inh	ClpP mod	TRPML1 blocker
29	.	-1.0%	36
30	-6%	.	.
25	17%	1.3%	2
